Screening results as filed in PubChem BioAssay.
SARS PLP yeast – blocks SARS-CoV papain-like protease in a yeast assay; S. cerevisiae expressing SARS-CoV PLpro, growth rescue; control for the full effect not named in the record; Potency, µM (titrated, usually from 32.9 µM), for inactives: at the top dose activity, positive = growth rescue; hit rate 0.19% among 330,000; active means well fitted rising curve with a large enough effect; inconclusive means small, poorly fitted or top-dose-only effect; inactive means no such curve, though single readings can be large or run the other way; also: 0% is about no effect; nearly all actives have a fitted effect of over 55% in size; growth read by luminescence after 48 h
2A StopGo – lowers the luciferase signal of an FMDV 2A StopGo reporter; AID 1159524; hit rate 1.2% among 410,000; Potency, µM (titrated, usually from 57.9 µM), for inactives: at the top dose signal change, negative = less light; human cells with a luciferase reporter of 2A StopGo recoding; control for the full effect not named in the record; active = well fitted falling curve with a large enough effect; inconclusive = small, poorly fitted or top-dose-only effect; inactive = no such curve, though single readings can be large or run the other way; tested in HEK293T cells; also: % is scaled to controls: 0 for no effect and ±100 for the full control effect; nearly all actives have a fitted effect of over 45% in size; luciferase light after 4 h
LASV entry inh – inhibitors of Lassa virus binding or cell entry | hit rate 1.2% among 300,000 | Potency, µM (doses to about 37.9 µM), inactives show at the top dose activity change, negative = inhibition, hits mostly inhibitors | AID 540256 | Lassa virus pseudotype entry inhibition, cell reporter; control for the full effect not named in the record; active means well fitted inhibition curve with a large enough effect; inconclusive means small, poorly fitted or top-dose-only effect, or effect the other way; inactive means flat fitted curve, though single readings scatter; tested in HEK293 cells; also: % is scaled to controls: 0 for no effect and ±100 for the full control effect; nearly all actives have a fitted effect of over 50% in size; luciferase read-out
NS1 function inh – blocks influenza NS1 protein function; hit rate 0.4% among 270,000; S. cerevisiae slowed by influenza A NS1, growth recovery by OD600; AID 2326; Potency, µM (doses to about 46.1 µM), without a hit: at the top dose activity, positive = more growth; active means well fitted rising curve with a large enough effect; inconclusive means small, poorly fitted or top-dose-only effect; inactive means no such curve, though single readings can be large or run the other way; also: nearly all actives have a fitted effect of over 50% in size
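OD600 was taken as the measure of yeast growth restored by compound in an NS1-expressing S. cerevisiae strain. Cells had been washed out of glucose medium and diluted 1:100 into galactose -URA medium, pH 6.0.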
RE007 growth inh – less growth of the S. pombe RE007 Vpr strain; hit rate 0.21% among 360,000; S. pombe RE007 Vpr strain, BacTiter-Glo ATP luminescence, 24 h; control for the full effect not named in the record; Potency, µM (doses to about 92.2 µM), for inactives: top-dose activity change, negative = less growth; active = well fitted falling curve with a large enough effect; inconclusive = small, poorly fitted or top-dose-only effect; inactive = no such curve, though single readings can be large or run the other way;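 also: % is scaled to controls: 0 for no effect and ±100 for the full control effect; nearly all actives have a fitted effect of over 50% in size; the assay follows cell death caused by Vpr and the record does not say whether a fall means rescue or toxicity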
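Fission yeast strain RE007, carrying one chromosomally integrated HIV-1 vpr copy, was seeded at OD 0.01 in PMG+AL medium with 23 nL pinned compound. After 24 h at 30 °C and 99% humidity, viability was read by BacTiter-Glo luminescence.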
Cruzain inh Det – blocks cruzain activity in presence of Triton detergent. Potency, µM, without a hit: max response, negative = inhibition, actives largely listed as inhibitors. purified cruzain, Z-FR-AMC fluorescence, 0.01% Triton. hit rate 0.43% among 200,000. P25779;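 also: plate controls were neutral wells for no effect and buffer without enzyme for full effect; nearly all actives have a fitted effect of over 40% in size; top concentration of the series not given in the record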
Target sequence (P25779 123-467 limits assumed): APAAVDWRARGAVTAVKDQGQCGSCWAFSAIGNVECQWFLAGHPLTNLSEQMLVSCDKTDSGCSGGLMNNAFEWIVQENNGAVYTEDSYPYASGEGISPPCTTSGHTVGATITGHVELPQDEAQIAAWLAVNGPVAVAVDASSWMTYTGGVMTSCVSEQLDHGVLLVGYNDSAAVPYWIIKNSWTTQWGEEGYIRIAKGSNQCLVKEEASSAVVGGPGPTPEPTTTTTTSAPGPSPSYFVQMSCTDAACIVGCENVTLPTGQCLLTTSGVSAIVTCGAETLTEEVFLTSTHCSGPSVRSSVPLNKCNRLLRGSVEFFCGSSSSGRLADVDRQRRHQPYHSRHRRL
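Compounds were screened in titration against cruzain (1.5 nM) with 0.01% Triton X-100 to counter colloidal aggregation. Activity was the AMC fluorescence increase over 60 s after adding 2 uM Z-FR-AMC at pH 5.5.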
Cruzain noTriton – cruzain (T. cruzi) inhibition without detergent. Potency, µM, for inactives: max response, negative = inhibition, most hits filed as inhibitors. AID 1476. purified cruzain, Z-FR-AMC fluorescence, no detergent. P25779. hit rate 2.3% among 200,000;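 also: plate controls were enzyme without inhibitor for no effect and buffer without enzyme for full effect; nearly all actives have a fitted effect of over 40% in size; top concentration of the series not given in the record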
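Purified cruzain at 1.5 nM, pre-incubated 15 min with compound at room temperature in 100 mM sodium acetate pH 5.5, 5 mM DTT, 0.00005% Triton X-100. Reaction started with 2 uM Z-FR-AMC; AMC fluorescence increase over 60 s gives rate.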
Marburg entry inh – Marburg virus entry inhibition; Marburg virus pseudotyped entry inhibition, cell reporter; control for the full effect not named in the record; about a third of the inactives were read at about 46 µM; hit rate 1.8% among 300,000; Potency, µM (titrated, usually from 37.8 µM), for inactives: top-dose activity change, negative = inhibition, most hits filed as inhibitors; AID 540276; active = well fitted inhibition curve with a large enough effect; inconclusive = small, poorly fitted or top-dose-only effect, or effect the other way; inactive = flat fitted curve, though single readings scatter; tested in HEK293 cells; about a fifth of its hits are not listed in these tables; also: % is scaled to controls: 0 for no effect and ±100 for the full control effect; luciferase read-out
Starred values were filed as active, the others as inactive; ? = inconclusive; nt = not tested or not shown; & = joins results of further samples; [ ] = dose if it differs, or a comment. Unless noted, calls follow the shape of the dose curve; as a rule, active = well fitted curve in the direction sought with a large enough effect; inconclusive = small, poorly fitted or top-dose-only effect, or another doubt; inactive = no such curve, though single readings can be large; an effect the other way counts as inactive or inconclusive. Potency is read from the fitted curve at half-maximal effect.

mol | SARS PLP yeast | 2A StopGo | LASV entry inh | NS1 function inh | RE007 growth inh | Cruzain inh Det | Cruzain noTriton | Marburg entry inh
CCOc1ccc(Sc2cc(C(=O)NCc3ccc(F)cc3)c3ccccc3n2)cc1 | nt | ? | 1%[46.1 µM] | nt | nt | 2.8% | -10% | nt
COC(=O)c1c(NC(=O)C(=O)N2CCCCC2)sc2c1CC(C)(C)OC2 | -2% | -7% | nt | 20% | -15% | nt | nt | nt
O=C(Oc1ccc2ccc(=O)oc2c1)c1cccs1 | ? | 1% | -9% | -10% | -17% | -12% | 13% | 8%
CC(=O)N1CCC2(CC1)C(C#N)=C(N)OC1=C2C(=O)CC(C)(C)C1 | -2% | -2% | 3% | 6% | -1% | 1.1% | 3% | 5%
O=C(c1ccc2c(=O)n(Cc3ccccc3)c(=S)[nH]c2c1)N1CCCC1 | 10% | -9% | -7%[46.1 µM] | 10% | 14% | nt | nt | ?
Cc1nn(CCO)c(N)c1C1(O)C(=O)Nc2c(Cl)cc(Cl)cc21 (stereo unspecified) | -7% | -18% | -5%[46.1 µM] | nt | 2% | nt | nt | ?
COC(=O)C1CCN(C(=O)/C=C/c2ccc3c(c2)OCO3)CC1 | 5% | 54%[activator] | ? | -1% | -5% | nt | nt | -3%
CCCn1c(=O)c2[nH]c(-c3ccc(OCC(=O)NCCN)cc3)nc2n(CCC)c1=O | nt | nt | 13% | ? | nt | -8.3% | 19% | ?
COc1cccc(CN2CCN(Cc3cc(OC)c(OC)cc3OC)CC2)c1 | 3% | -7% | ? | 2% | -5% | nt | nt | ?
CN(Cc1ccccc1)C(=O)COC(=O)Cc1ccc(Cl)cc1 | -5% | 11% | 9%[46.1 µM] | nt | 1% | nt | nt | -6%[46.1 µM]
Cc1cccc(C)c1OCC(=O)Nc1ccc(NC(=O)c2ccco2)cc1 | -1% | -8% | 6%[46.1 µM] | -5% | 0% | nt | nt | 0%[46.1 µM]
COc1ccc(NC(=O)C2CCOC2=O)cc1 (stereo unspecified) | nt | -2% | 12% | nt | 4% | nt | nt | 3%
COc1ccc(CC(=O)Nc2ccccc2C(C)=O)cc1S(=O)(=O)N1CCOCC1 | 2% | -23% | 1% | nt | 6% | nt | nt | 0%
CC(=O)C1=C(C)NC(SCC(=O)c2ccccc2)=C(C#N)C1CC(C)C (stereo unspecified) | -2% | -9% | -28% | ? | 11% | -5.1% | 2% | -21%
O=C(CN1CCN(c2ccccn2)CC1)NC(=O)NC1CCCCC1 | 1% | -25% | -12% | -8% | -7% | 3.9% | 11% | -24%
CCOc1ccc(NC(=O)N(c2ccccc2)c2ccccc2)cc1 | -5% | -5% | -16% | -9% | 2% | nt | nt | 6%
Cc1ccc(-c2cc(NC(=O)c3cccc(C)c3)on2)cc1 | nt | 41%[activator] | 19%[46.1 µM] | nt | nt | -2.6% | -25% | 13%[46.1 µM]
CCOc1ccc(Nc2cc(C)nc3c(C)cccc23)cc1 | 1% | -22% | -29% | -8% | 6% | nt | nt | 0.89µM*
O=C(COC(=O)[C@@H]1CC(O)CN1S(=O)(=O)c1ccc([N+](=O)[O-])cc1)NC12CC3CC(CC(C3)C1)C2 (stereo partly specified) | -1% | 2% | nt | -12% | -1% | -5.2% | ? | -1%
O=C(O)CN1C2=NCCCN2c2ccccc21 | 1% | 0% | -3% | -1% | 0% | nt | nt | 3%[46.1 µM]
O=C(Nc1ccc(F)cc1F)C1CCN(S(=O)(=O)c2cccnc2)CC1 | 1% | -13% | 25%[46.1 µM] | -1% | 4% | nt | nt | ?
O=c1c2ccccc2nc(COc2ccccc2)n1/N=C/c1ccco1 | -7% | -20% | ? | -56% | -5% | -5.2% | -10% | 32%
O=C(O)CCc1nc(-c2cccs2)no1 | 1% | -11% | 11% | -14% | -20% | 1.0% | 5% | 20%
O=C(NC1CCCCC1)C1COc2ccccc2O1 (stereo unspecified) | 2% | 37%[activator] | 1% | nt | -8% | nt | nt | 3%
CCOCC(=O)Nc1cc(C(=O)OC)ccc1C(=O)OC | -2% | -12% | 12% | -7% | -9% | 4.1% | 4% | 3%
C[C@]12C=CC(=O)C=C1CC[C@@H]1[C@@H]2[C@@H](O)C[C@@]2(C)[C@H]1CC[C@]2(O)C(=O)COC(=O)CCC(=O)O | -1% | -25% | 12% | 7% | 12% | 3.3% | 3% | -3%
Cc1occc1C(=O)/C(C#N)=C/c1ccc(O)c(Br)c1 | -3% | -2% | nt | -4% | ? | nt | nt | 3%[46.1 µM]
O=C1CC(c2cccs2)CC(O)=C1C=NCCN1CCNCC1 (stereo unspecified) | -12% | nt | 0% | 6% | -7% | 0.0% | 0% | 12%
C=C(C)c1cccc(C(C)(C)NC(=O)N(C)C2CCN(C)CC2)c1 | 1% | -12% | 19% | 3% | 3% | nt | nt | ?
O=c1c(-c2ccccc2)c(O)nc2ccccn12 | -5% | nt | -5% | 1% | -3% | 7.9% | -8% | 4%
O=[N+]([O-])c1cc(Cl)ccc1NCCc1ccccn1 | -35% | 4% | 18% | -42% | -11% | nt | nt | 27%[46.1 µM]
O=[N+]([O-])c1ccc(N2CCOCC2)cc1NCCCO | 0% | -1% | 6% | 0% | 4% | nt | nt | 14%[46.1 µM]
Cn1ncc2nc[nH]c(=O)c21 | 0% | 32%[activator] | 1% | 2% | 27% | -7.4% | 4% | -15%
CCOC(=O)Cn1c(=O)n(CC2CCCO2)c2nc(-c3ccccc3)nc(C(N)=O)c21 (stereo unspecified) | nt | -30% | -1%[46.1 µM] | nt | nt | -1.0% | -7% | nt
CNCC(O)CN1CCN(c2ccccc2OC)CC1 (stereo unspecified) | -5% | -6% | -26%[46.1 µM] | nt | -3% | nt | nt | ?
CCNC(=O)N1c2ccc(OCC)cc2C(C)=CC1(C)C | ? | -2% | -6% | -81% | -4% | 0.9% | 16% | -8%
COc1cccc(CNc2nc3ccccc3n2CCN2CCCCC2)c1 | -5% | -30% | 5% | 0% | -15% | -3.1% | 3% | ?
O=C(Nc1ccc(OC(F)(F)F)cc1)C1=NCCN1 | 16% | -5% | -4% | -1% | -17% | -1.9% | 2% | ?
Cn1nc(C(F)(F)F)c(C(=O)Nc2ccc(F)cc2F)c1Sc1cccc(C(F)(F)F)c1 | 15% | ? | -1% | 4% | -4% | -5.3% | 1% | ?
CC(=O)c1ccc(NS(=O)(=O)c2ccc3c(c2)N(C)CCO3)cc1 | 3% | 29% | nt | 26% | 7% | nt | nt | nt
CCCNC(=O)c1c(C)cc(=O)oc1C | 4% | 20% | 2% | 13% | -5% | -7.8% | 4% | 17%
Cc1ccc2c(c1)cc1c(=O)n(CC(=O)N(C)c3ccccc3)nc(C)n12 | 0% | 19%&24% | 4%&-1%[46.1 µM] | 9% | 1% | -4.9% | -10% | -1%&19%[46.1 µM]
Cc1ccc(/C=N/Nc2ccc3c(C(F)(F)F)cc(C(F)(F)F)nc3n2)cc1 | -8% | -8% | -1% | 17% | -3% | 3.4% | 5% | 1%[46.1 µM]
CCS(=O)(=O)N1Cc2ccccc2CC1C(=O)NCc1cccc(OC)c1 (stereo unspecified) | -2% | 3% | 13% | -3% | -13% | nt | nt | -2%
CC(C)CCC(CC(C)O)c1n[nH]c(=S)n1-c1ccccc1 (stereo unspecified) | 0% | -1% | 2% | -4% | 28% | 0.2% | 4% | ?
CC1=C(C)/C(=N/OC(=O)c2cccc([N+](=O)[O-])c2)C=CC1=O | -27% | ? | -18% | -14% | -20% | -5.2% | -18% | ?
CCOc1ccc(C(=O)N2CC(=O)Nc3ccc(C)cc3C2c2ccc(F)cc2)cc1OCC (stereo unspecified) | nt | -25% | ? | nt | nt | -6.9% | -2% | ?
O=C(COC(=O)c1nc(Cl)ccc1Cl)NCCc1ccccc1 | 7% | -7% | 12% | nt | -3% | nt | nt | 13%[46.1 µM]
CCC1CCCCN1C(=O)CSc1nnc(CNC(=O)COc2ccc(Cl)cc2)o1 (stereo unspecified) | 21% | -21% | 4% | 7% | 28% | 0.0% | -3% | -6%[46.1 µM]
COc1cc(C2c3c(-c4ccccc4)n[nH]c3C(=O)N2c2ccccc2)ccc1O (stereo unspecified) | 2% | ? | -29% | 2% | 6% | -6.5% | 3% | -2%
Cc1ccc(NC(=O)CC2Nc3cc(C)c(C)cc3NC2=O)c(C)c1 (stereo unspecified) | nt | -12% | 4%[46.1 µM] | nt | nt | -3.6% | -13% | 4%[46.1 µM]
Cc1ccc(-n2c(SCC(=O)N3CCCC3)nc3c(c2=O)SCC3)cc1 | -12% | nt | nt | 2% | nt | -0.9% | -16% | 6%
Cn1c(-c2cccc(Br)c2)n[nH]c1=O | 2% | -7% | -5% | 3% | -11% | nt | nt | -16%[46.1 µM]
CN1CCN(/C=C(\C#N)S(=O)(=O)c2ccc(Cl)cc2)CC1 | -1% | 8% | 1% | -1% | 5% | nt | nt | 2%
O=C(Cn1nc(-c2ccc(Cl)cc2)ccc1=O)NCC1CCCO1 (stereo unspecified) | -2% | -8% | nt | -5% | 6% | -5.0% | 0% | nt
O=C(CN1CCCCC1)Nc1ccc(NC(=O)c2ccccc2Cl)cc1Cl | -38% | -3% | ? | -12% | -20% | -1.4% | -10% | -38%
Cc1cccc(N(CC(=O)NC2CCCCC2)C(=O)c2ccc(C)s2)c1 | -5% | nt | 7% | -5% | 3% | -0.8% | 2% | -19%
CCN(Cc1ccccc1)S(=O)(=O)c1ccc(C(=O)Nc2nnc(C3CC3)o2)cc1 | ? | -20% | nt | -218% | 9% | -5.9% | ? | 2%
CNC(=O)COc1ccc(NC(=O)c2ccc(-c3nn(C)c(=O)c4ccccc34)cc2)cc1 | nt | -21% | ? | nt | nt | -0.3% | 6% | -13%[46.1 µM]
CCCCNC(=O)CN1C(=O)c2cccnc2Sc2ccccc21 | nt | 7% | 2%[46.1 µM] | nt | nt | -3.3% | 1% | nt
CCOc1ccc(C(=O)NCCc2sc(-c3ccc(C)cc3)nc2C)cc1 | nt | 9% | ? | nt | nt | -8.4% | ? | nt
O=C(O)c1cc(NC(=O)c2ccc(Cl)c([N+](=O)[O-])c2)cc(C(=O)O)c1 | -2% | -6% | 4% | nt | 5% | nt | nt | 0%[46.1 µM]
